# Giardia killer = kills Giardia lamblia; Giardia lamblia trophozoite viability; AID 540267; hit rate 0.15% among 340,000; activity change, % at 7.66 µM, hits read low; in the data active = activity change below about -80%; inconclusive = between about -30% and that limit;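 also: parasites exposed to compound for two days anaerobically before the ATP read; % is scaled to controls: 0 for no effect and ±100 for the full control effect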
#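 Viability, read as ATP luminescence: trophozoites at 100 cells/well, compound added, 48 hrs anaerobic at 37 deg C, then 15-30 min room-temperature development before reading.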
# Coupling enz = counter-screen for Giardia aldolase inhibitors: coupling enzyme system; coupling enzyme system counterscreen, AmpLite Red fluorescence; AID 2472; hit rate 0.67% among 290,000; activity change, negative = inhibition, % at 58.2 µM, hits read low; in the data active = activity change below about -30%; also: % is scaled to controls: 0 for no effect and ±100 for the full control effect
#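 First, compound is pin-transferred into glyceraldehyde-3-phosphate coupling-enzyme reagent at 57.5 uM final and held 10 min at RT. Next, substrate, coupling system and AmpLite Red are added. After 20 min RT, fluorescence (525/598 nm) is read.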
# NPC1 prom act = activates the NPC1 promoter. Huh7 NPC1 promoter luciferase reporter, 24 h. Potency, µM (doses to about 9.22 µM), for the others: at the highest dose activation, most hits filed as activators. hit rate 2.4% among 320,000. AID 485313;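 also: potency is read from the fitted curve at half-maximal effect; % of control where 0% means no effect; nearly all actives have a fitted effect of over 60% in size; reporter is driven by a mutant NPC1 promoter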
#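 Readout is luciferase luminescence, reflecting NPC1 promoter activation in stably transfected Huh7 cells after 24 h compound exposure at 37 °C in reduced-serum medium with 10% FBS.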
# ELG1 genotox = inducers of genotoxicity in HEK293T ELG1-luciferase cells. HEK293T ELG1-luciferase reporter, luminescence, 16 h. Potency, µM (doses to about 46 µM), for the others: top-dose activity change, positive = activation, most hits filed as activators. hit rate 1.3% among 330,000; also: potency is read from the fitted curve at half-maximal effect; % of control where 0% means no effect; nearly all actives have a fitted effect of over 60% in size
#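 Screening used a luciferase reporter fused to human ELG1 in HEK293T cells. Luminescence was read on a CCD plate imager after 16 hr exposure and 30 min ONE-Glo incubation.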
# Rab9 prom act = activates the Rab9 promoter; Huh7 Rab9 promoter-luciferase reporter, luminescence, 24 h; Potency, µM (series often up to 9.22 µM), for inactives: at the top dose activation, negative = inhibition, most hits filed as activators; hit rate 2.8% among 320,000; AID 485297; also: potency is read from the fitted curve at half-maximal effect; % of control where 0% means no effect; nearly all actives have a fitted effect of over 60% in size
#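 Measured in stably transfected Huh7 cells bearing a Rab9 promoter–luciferase construct: 24 h compound treatment at 37 °C, followed by luminescence detection.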
# Tb PFK block = blocks T. brucei phosphofructokinase; T. brucei PFK, ADP-Glo luminescence; Potency, µM (series often up to 57.5 µM), for the others: at the highest dose activity, negative = inhibition, most hits filed as inhibitors; hit rate 0.17% among 330,000; O15648;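 also: potency is read from the fitted curve at half-maximal effect; 0% = uninhibited 1x PFK enzyme wells and -100% = no-enzyme wells; nearly all actives have a fitted effect of over 60% in size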
# Target sequence (O15648 whole entry, looked up): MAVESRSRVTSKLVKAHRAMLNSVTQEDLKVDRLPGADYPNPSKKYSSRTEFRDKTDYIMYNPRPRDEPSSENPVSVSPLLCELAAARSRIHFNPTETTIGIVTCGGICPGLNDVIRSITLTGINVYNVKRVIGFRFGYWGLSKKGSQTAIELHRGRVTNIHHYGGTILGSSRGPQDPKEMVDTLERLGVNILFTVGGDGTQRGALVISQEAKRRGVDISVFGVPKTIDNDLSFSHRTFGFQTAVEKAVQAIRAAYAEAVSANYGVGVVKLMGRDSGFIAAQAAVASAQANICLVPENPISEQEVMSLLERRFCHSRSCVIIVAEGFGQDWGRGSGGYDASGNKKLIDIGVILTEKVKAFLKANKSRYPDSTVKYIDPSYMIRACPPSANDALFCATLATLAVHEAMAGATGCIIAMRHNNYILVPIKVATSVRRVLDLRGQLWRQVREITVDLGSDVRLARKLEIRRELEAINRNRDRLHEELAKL
#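 In TEA buffer at pH 8.0 with 5 mM MgCl2, enzyme (1.25 nM) converted F6P (0.5 mM) and ATP (0.1 mM) for 45 min at room temperature. ADP product was read by luciferase luminescence.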
# The depositor's hits bear a star; ? = inconclusive; . = not tested or not shown; & = joins results of further samples; [ ] = another dose, or the depositor's remark. Unless noted, calls follow the shape of the dose curve; as a rule, active = well fitted curve in the direction sought with a large enough effect; inconclusive = small, poorly fitted or top-dose-only effect, or another doubt; inactive = no such curve, though single readings can be large; an effect the other way counts as inactive or inconclusive. The list is partial, so the mix of outcomes need not match the whole.
canonical_smiles | Giardia killer | Coupling enz | NPC1 prom act | ELG1 genotox | Rab9 prom act | Tb PFK block
C[C@]12C=CC(=O)C=C1CC[C@@H]1[C@@H]2[C@@H](O)C[C@@]2(C)[C@H]1CC[C@]2(O)C(=O)CO | 6.4 | 0.2 | -0.3% | 5.0% | -0.5% | -0.4%
C[C@H]1[C@H](C)CC[C@]2(C(=O)O)CC[C@]3(C)C(=CC[C@@H]4[C@@]5(C)CC[C@H](O)C(C)(C)[C@@H]5CC[C@]43C)[C@H]12 | 6.8 | 5.0 | -5.1% | 12.2% | -3.3% | 2.8%
CCN(CC)c1ccc2c(C)cc(=O)oc2c1 | -9.9 | . | -0.3% | 6.7% | -0.1% | 6.9%
CN1CCCN=C1/C=C/c1cccs1 | -6.4 | . | 1.6% | 4.9% | 8.4% | 0.7%
Nc1cc(-c2ccccc2)ccc1O | -5.3 | -4.3&1.0 | 11.6%&-3.1% | 3.0%&2.7% | 0.9%&2.9% | -6.5%&-3.4%
NCCc1ccc(O)c(O)c1 | -23.1 | -8.8&-8.3&-7.3 | 3.2%[46.1 µM] | 5.4% | -4.1%[46.1 µM] | ?
Nn1cnc2cc3ccccc3cc2c1=O | -9.0 | -0.3 | -0.8% | -0.4%[9.26 µM] | 9.4% | 0.3%
NC(Cc1c[nH]c2ccc(OCc3ccccc3)cc12)C(=O)O (centres undefined) | -6.3 | -0.3 | 1.4% | 0.9% | 16.6% | 5.7%
Nc1[nH]c(=O)ncc1F | -2.1 | 3.6&0.5&-0.9 | 0.9%&-0.7% | 0.5% | -2.1%&-2.8% | -4.9%&2.7%
C#C[C@]1(O)CCC2C3CCC4=CC(=O)CC[C@@H]4C3CC[C@@]21C (some centres undefined) | -7.8 | 1.4 | -3.1% | 1.7% | -0.7% | 0.5%
Nc1c(Br)cc(Br)cc1CNC1CCC(O)CC1 (centres undefined) | 7.5&16.8 | 0.5&0.6&6.2&2.2&0.8 | -0.4%&-2.4% | -0.7%&-0.5% | 1.2%&0.0% | -17.2%&0.7%
O=C(Nc1ccc(Cl)cc1)c1cc2c(cc1O)[nH]c1ccccc12 | 9.3 | 2.4 | -0.8% | -13.5% | -8.3% | -0.6%
CC1CC2C3CCC4=CC(=O)C=CC4(C)C3(F)C(O)CC2(C)C1(O)C(=O)CO (centres undefined) | -24.5 | 1.3 | -1.0% | 4.5% | 1.0% | 1.6%
CCCc1nc(C)c2c(=O)[nH]c(-c3cc(S(=O)(=O)N4CCN(CC)CC4)ccc3OCC)nn12 | 18.4 | . | . | . | . | .
C[C@H]1[C@@H](O)[C@@H](C)\C=C/C=C\C=C/C=C\C=C/C=C\C=C/[C@@H](O[C@H]2O[C@@H](C)[C@@H](O)[C@@H](N)[C@@H]2O)C[C@@H]2O[C@](O)(C[C@@H](O)C[C@@H](O)[C@@H](O)CC[C@@H](O)C[C@@H](O)CC(=O)O[C@H]1C)C[C@@H](O)[C@H]2C(=O)O (stereo in doubt) | . | -3.5 | . | . | . | .
O=C(c1ccccc1)C(O)c1ccccc1 (centres undefined) | -8.3 | . | -3.2% | 1.2% | -3.3% | 1.8%
C#C[C@]1(O)CC[C@H]2[C@@H]3CCC4=C(CCC(=O)C4)[C@H]3CC[C@@]21C | 19.9 | -1.4 | -1.4% | -0.5% | -4.0% | -5.7%
Cc1cn[nH]c1 | 5.7 | . | 3.0%[46.1 µM] | -3.4% | 1.6%[46.1 µM] | -4.4%
Cc1nccn1Cc1ccccc1 | -15.2 | 2.0 | 4.9% | -1.4% | -6.1% | 1.3%

# An excerpt from above in order of molar mass, ascending:
canonical_smiles | Giardia killer | Coupling enz | NPC1 prom act | ELG1 genotox | Rab9 prom act | Tb PFK block
Cc1nccn1Cc1ccccc1 | -15.2 | 2.0 | 4.9% | -1.4% | -6.1% | 1.3%
Nn1cnc2cc3ccccc3cc2c1=O | -9.0 | -0.3 | -0.8% | -0.4%[9.26 µM] | 9.4% | 0.3%
C#C[C@]1(O)CCC2C3CCC4=CC(=O)CC[C@@H]4C3CC[C@@]21C (some centres undefined) | -7.8 | 1.4 | -3.1% | 1.7% | -0.7% | 0.5%
NC(Cc1c[nH]c2ccc(OCc3ccccc3)cc12)C(=O)O (centres undefined) | -6.3 | -0.3 | 1.4% | 0.9% | 16.6% | 5.7%
C[C@]12C=CC(=O)C=C1CC[C@@H]1[C@@H]2[C@@H](O)C[C@@]2(C)[C@H]1CC[C@]2(O)C(=O)CO | 6.4 | 0.2 | -0.3% | 5.0% | -0.5% | -0.4%
CC1CC2C3CCC4=CC(=O)C=CC4(C)C3(F)C(O)CC2(C)C1(O)C(=O)CO (centres undefined) | -24.5 | 1.3 | -1.0% | 4.5% | 1.0% | 1.6%
C[C@H]1[C@H](C)CC[C@]2(C(=O)O)CC[C@]3(C)C(=CC[C@@H]4[C@@]5(C)CC[C@H](O)C(C)(C)[C@@H]5CC[C@]43C)[C@H]12 | 6.8 | 5.0 | -5.1% | 12.2% | -3.3% | 2.8%
CCCc1nc(C)c2c(=O)[nH]c(-c3cc(S(=O)(=O)N4CCN(CC)CC4)ccc3OCC)nn12 | 18.4 | . | . | . | . | .
C[C@H]1[C@@H](O)[C@@H](C)\C=C/C=C\C=C/C=C\C=C/C=C\C=C/[C@@H](O[C@H]2O[C@@H](C)[C@@H](O)[C@@H](N)[C@@H]2O)C[C@@H]2O[C@](O)(C[C@@H](O)C[C@@H](O)[C@@H](O)CC[C@@H](O)C[C@@H](O)CC(=O)O[C@H]1C)C[C@@H](O)[C@H]2C(=O)O (stereo in doubt) | . | -3.5 | . | . | . | .

# High-throughput results from PubChem BioAssay.
